# MLL AF4-AF9 inh – MLL-AF4/AF9 protein interaction inhibition; AlphaScreen, biotin-AF4 peptide binding to FLAG-AF9; inhibition, % at 10 µM; 0.47% of 350,000 active;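 active = every replicate reaching a set inhibition limit, whatever the replicate mean, cut at about 25% in these data; inconclusive = mean inhibition reaches that limit but some replicates miss it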;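 also: 0% = plate neutral control median and 100% = total signal loss; the record names both 10 and 1 µM as test concentration; the first replicate is given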
# Target sequence (P42568 whole entry, looked up): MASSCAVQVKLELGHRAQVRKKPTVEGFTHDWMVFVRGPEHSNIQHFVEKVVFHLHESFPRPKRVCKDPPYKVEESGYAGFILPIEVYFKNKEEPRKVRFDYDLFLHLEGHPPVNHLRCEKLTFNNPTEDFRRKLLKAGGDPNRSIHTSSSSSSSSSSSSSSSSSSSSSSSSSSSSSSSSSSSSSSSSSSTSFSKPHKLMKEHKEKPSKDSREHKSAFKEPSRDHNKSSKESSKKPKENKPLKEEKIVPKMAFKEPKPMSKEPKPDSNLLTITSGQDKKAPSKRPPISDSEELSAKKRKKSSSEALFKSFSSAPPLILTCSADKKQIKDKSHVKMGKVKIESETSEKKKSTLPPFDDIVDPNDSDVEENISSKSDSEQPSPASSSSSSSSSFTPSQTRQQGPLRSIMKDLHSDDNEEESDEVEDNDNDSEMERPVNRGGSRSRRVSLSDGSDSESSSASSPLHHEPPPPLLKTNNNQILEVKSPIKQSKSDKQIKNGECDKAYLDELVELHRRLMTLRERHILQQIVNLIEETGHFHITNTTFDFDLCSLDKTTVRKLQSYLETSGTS
# FGF22 binding – FGF22 (human) thermal shift binding | recombinant FGF22 thermal shift, SYPRO orange fluorescence; percent of sucrose octasulfate shift, DMSO zero | calls only at 9.99 µM | 1.5% of 340,000 active | AID 651658;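 active = melting point raised past a set limit in the mean and every replicate; inconclusive = no clear call; three in four hits are not shown here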
# Target sequence (Q9HCT0 whole entry, looked up): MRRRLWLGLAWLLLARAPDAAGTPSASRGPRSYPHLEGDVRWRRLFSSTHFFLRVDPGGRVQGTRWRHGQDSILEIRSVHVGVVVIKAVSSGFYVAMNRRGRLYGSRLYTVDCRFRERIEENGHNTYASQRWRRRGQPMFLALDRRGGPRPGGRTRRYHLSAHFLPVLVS
# ALR H2O2 inh – human ALR oxidase inhibition via reduced H2O2; P55789; purified ALR, DTT oxidation, H2O2 HRP-luminol luminescence; inhibition, % (concentration not given with the values); 3.8% of 290,000 active;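 active = mean and each replicate at 75% or more; inconclusive = only one of the two met; inactive = neither met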;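 also: stock transfer was 7.5 nL into about 7.5 µL; 0% = neutral wells and 100% = wells with inactivated enzyme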
# Target sequence (P55789 whole entry, looked up): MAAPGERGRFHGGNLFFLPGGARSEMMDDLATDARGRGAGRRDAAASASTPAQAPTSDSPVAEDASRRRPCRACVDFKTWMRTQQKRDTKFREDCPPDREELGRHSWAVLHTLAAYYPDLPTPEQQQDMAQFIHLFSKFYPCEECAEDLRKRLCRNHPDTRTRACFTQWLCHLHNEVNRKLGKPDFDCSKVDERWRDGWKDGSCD
# Ecoli rRNA inh – selective bacterial rRNA inhibition in E. coli; E. coli WT GFP vs humanized-ribosome RFP mutants, fluorescence, 24 h; hits give low values; DMSO median 0, no signal -100; GFP signal change (wild-type ribosome), % (concentration not given with the values); 1.6% of 350,000 active;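 active = significant combined selectivity score with lowered wild-type GFP, culture density cut under 30%, mutant RFP and density less affected; inactive = any of these conditions unmet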; also: one replicate is shown; some compounds called inactive have numbers as strong as hits
# RanGTP-Imp inh – disruptors of Ran-importin-beta complex formation – biochemical, FRET, CFP-Ran, YFP-importin-beta, homogeneous, primary screen; cell-free CFP-Ran/YFP-importin-beta FRET ratio; inhibition, % (no concentration beside the values); 1.1% of 300,000 active;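 active = most replicates above 15%; inconclusive = exactly half above 15%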;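 also: 0% = DMSO wells and 100% = Ran loaded with GDP instead of GTP; wells of about 40 µL received 100 nL stock; the first replicate is given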
# Calb FLC – C. albicans growth modulation with fluconazole; C. albicans CaCi-2 (fluconazole-resistant clinical isolate) + fluconazole, Alamar Blue growth, 48 h; growth inhibition, % (no concentration beside the values); 0.57% of 300,000 active;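 active = most replicates above 75%; inconclusive = exactly half above 75%; inactive = most below 75%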;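 also: all wells also contain fluconazole at 8 µg/ml as a sub-toxic cotreatment; 0% = median of DMSO wells and 100% = median of geldanamycin control wells; wells of about 8 µL received 7.5 nL stock; the first replicate is given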
# T cruzi repl – T. cruzi replication inhibition. AID 1885. T. cruzi beta-gal in NIH3T3, luminescence, 90 h. 1.4% of 300,000 active. inhibition, % (concentration not given with the values);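 active = mean inhibition across valid replicates above about 55%, limit read from the data; inconclusive = mean below that limit but half or more replicates reach it; inactive = mean below it, under half of replicates reach it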;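 also: signal also drops with host cell toxicity which is not excluded here; 0% = plate median of DMSO wells and 100% = zero luminescence signal; higher percent means less beta-gal luminescence so fewer parasites; stock transfer was 50 nL into about 50 µL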
# Beta apoptosis – beta cell apoptosis inhibition; protection from apoptosis, % (no concentration beside the values); INS-1E cytokine-induced death, ATP luminescence, 48 h; percent of positive-control rescue, neutral wells zero; 0.8% of 300,000 active; AID 435005;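 active = all replicates at 75% or more, or half of them and the mean; inconclusive = half reach 75% but not the mean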;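 also: 0% = cytokine-treated negative control wells and 100% = positive control rescue; higher means more ATP so stronger rescue from cytokine killing; wells of about 40 µL received 100 nL stock; the first replicate is given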
# Ecoli rRNA inh OD600 – further read-out of Ecoli rRNA inh, marked with its call; OD600 change, %; measured here: OD600 growth;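 optical density of the mix in the first replicate; 0 = DMSO median and -100 = no signal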
# Ecoli rRNA inh RFP – also measured in Ecoli rRNA inh; calls as there; RFP signal change, %; measured here: RFP humanized mutant strains;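 first replicate; 0 = DMSO median and -100 = no signal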
# The depositor's hits bear a star; i = inactive; u = inconclusive; x = not tested or not shown. Only part of the results is shown, so the mix of outcomes need not match the whole.
1. CN1CCN(Cc2nc3c(c(=O)[nH]c(=O)n3C)n2CCc2ccccc2)CC1
2. CC(C)CNC(=O)NC(=O)CSc1nc2ccccc2n1CC(C)C
3. CCCCNC(=O)CSc1nc2cc3c(cc2c(=O)n1Cc1ccco1)OCO3
4. NC(=O)c1ccc(C(F)(F)F)cn1
5. CC(=O)N1CCN(C(=O)c2ccc(-c3cccc(C(F)(F)F)c3)o2)CC1
6. Cn1ccsc1=NC(=O)c1ccc(S(C)(=O)=O)c([N+](=O)[O-])c1
7. O=C(N/N=C/c1ccc(Br)cc1)c1cc[n+]([O-])cc1
8. c1cc2c(cc1CN1CCOCC1)OCO2
9. Cn1c(CCNC(=O)c2ccccc2)nc2cc(NC(=O)c3ccco3)ccc21
10. Cc1ccc(NC(=O)CSC(N)=O)cc1Cl
assay / compound | 1 | 2 | 3 | 4 | 5 | 6 | 7 | 8 | 9 | 10
RanGTP-Imp inh | 0.3 | -1.8 | 2.0 | 2.4 | -4.8 | 1.0 | u | -0.7 | 5.4 | 1.7
MLL AF4-AF9 inh | -3.5 | x | -1.1 | -2.7 | -0.4 | -1.9 | 1.7 | x | x | x
Ecoli rRNA inh OD600 | 3 | x | 5 | 3 | -6 | x | -5 | x | x | x
Calb FLC | 3 | -17 | 7 | 26 | x | -10 | -18 | -5 | -2 | -27
T cruzi repl | -6 | 14 | 22 | -4 | -1 | -8 | -7 | -9 | -1 | 46
Beta apoptosis | -7 | -2 | 7 | 0 | -3 | -25 | 0 | -14 | -1 | -17
ALR H2O2 inh | 42 | -1 | -5 | -15 | -1 | 21 | 0 | 17 | -20 | 100*
FGF22 binding | i | x | i | i | i | i | i | x | x | x
Ecoli rRNA inh | 1 | x | 8 | 15 | -6 | x | 1 | x | x | x
Ecoli rRNA inh RFP | 0.0 | x | 0.1 | -1.7 | -0.9 | x | 0.3 | x | x | x

11. CCCCNC(=O)c1ccccc1SCc1c(C)noc1C
12. CCn1cc(S(=O)(=O)CC(=O)Nc2cc(C)on2)c2ccccc21
13. O=c1[nH]nc(SCc2cc(Cl)ccc2Cl)c(=O)[nH]1
14. CC(C)C1Nc2ccc(C(=O)N3CCN(c4ccccn4)CC3)cc2NC1=O (stereo not given)
15. CC(=O)NS(=O)(=O)c1ccc2sc(C)nc2c1
16. Cc1ccc(CSc2nnc(-c3ccccc3N)c(=O)[nH]2)cc1
17. COc1ccc(N(C(=O)c2ccccc2OC)C2C=CS(=O)(=O)C2)c(OC)c1 (stereo not given)
18. Cc1cc(C(=O)N2CCc3ccccc32)c2ccccc2n1
19. COc1ccc([N+](=O)[O-])cc1NCC(=O)c1ccc(C)cc1
20. COc1ccc(NC(=O)CCNC(=O)c2ccco2)cc1OC
assay / compound | 11 | 12 | 13 | 14 | 15 | 16 | 17 | 18 | 19 | 20
RanGTP-Imp inh | 4.0 | -2.3 | -2.2 | 8.3 | -0.7 | 2.4 | 0.1 | 0.8 | -1.7 | 0.9
MLL AF4-AF9 inh | -2.7 | x | 4.5 | -2.1 | -26 | x | -2.8 | x | 4.7 | -2.2
Ecoli rRNA inh OD600 | 11 | x | -9 | 8 | 16 | x | 0 | x | 3 | -8
Calb FLC | -2 | 3 | 2 | -20 | -1 | 2 | -14 | 2 | 3 | 9
T cruzi repl | 17 | 6 | -19 | 3 | 1 | -3 | 5 | 1 | -7 | -8
Beta apoptosis | -12 | 3 | 4 | -4 | -1 | -9 | -5 | 1 | 3 | 5
ALR H2O2 inh | 1 | x | 57 | 9 | -9 | -1 | -14 | -9 | -9 | -21
FGF22 binding | i | x | i | i | i | x | i | x | i | x
Ecoli rRNA inh | 7 | x | -11 | -4 | 11 | x | 10 | x | -2 | -4
Ecoli rRNA inh RFP | -2.0 | x | -4.6 | -3.4 | 0.1 | x | -0.2 | x | 2.2 | 0.7

21. CCCn1c(=O)[nH]c(=O)c2c1nc(-c1ccc3c(c1)OCCO3)n2CCN1CCOCC1
22. CC(C)(C)NC(=O)NC(=O)COC(=O)CNS(=O)(=O)c1ccc(Br)cc1Cl
23. O=C(NC1CCSC1=O)c1cccc(Cl)c1 (stereo not given)
24. Fc1ccccc1COc1ccccc1/C=N/Nc1nc(N2CCCC2)nc(N2CCCC2)n1
25. CC(=O)c1ccc(OCC(=O)Nc2ccccc2N2CCCC2)cc1
26. O=C1c2ccccc2C(=O)C1c1ccncc1
27. CCC1(CC)NC(=S)N(Nc2ccccc2)C1=O
28. Cc1cc(Cl)ccc1NC(=S)NCc1ccccc1
29. C=CCN(C(=O)Cn1ncc2c1-c1cc(C)ccc1OC2)c1ccccc1
30. CC(=O)c1cccc(NC(=S)N2CCN(c3ccccn3)CC2)c1
assay / compound | 21 | 22 | 23 | 24 | 25 | 26 | 27 | 28 | 29 | 30
RanGTP-Imp inh | 0.6 | -1.6 | u | -5.2 | 1.1 | 4.5 | 1.1 | 6.0 | 1.6 | 2.0
MLL AF4-AF9 inh | x | -2.3 | -2.8 | x | 0.7 | x | x | x | -5.2 | -0.4
Ecoli rRNA inh OD600 | x | 1 | 5 | x | -22 | x | x | x | -44 | -1
Calb FLC | 1 | 6 | -9 | -28 | 3 | -3 | -6 | -5 | 13 | 7
T cruzi repl | 15 | -5 | -16 | 4 | 1 | -15 | -11 | -8 | 7 | -7
Beta apoptosis | -3 | 0 | -6 | 2 | x | 8 | 3 | -6 | -4 | 0
ALR H2O2 inh | x | -5 | 2 | 2 | 72 | 23 | -6 | x | -6 | -10
FGF22 binding | x | i | i | x | i | x | x | x | i | i
Ecoli rRNA inh | x | -3 | 9 | x | -21 | x | x | x | -28 | 1
Ecoli rRNA inh RFP | x | 4.9 | -0.4 | x | -2.8 | x | x | x | -2.1 | 1.2

31. OCC[C@@H]1C[C@@H](O)[C@H](O)[C@@]2(CCCc3ccccc3O2)O1
32. O=C(Nc1ccccc1)c1cccc(-c2nnc(-c3ccccc3)o2)c1
33. CN(C)S(=O)(=O)Nc1ccccc1F
34. COc1ccc(CCNC(=O)c2ccc3c(=O)n(Cc4ccco4)c(=S)[nH]c3c2)cc1OC
35. COc1ccc(N2CCN(c3oc(COc4ccc(Cl)cc4)nc3C#N)CC2)cc1
36. Cc1ccc(C(=O)NC(O)C(Cl)Cl)cc1 (stereo not given)
37. CCc1nnc(NC(=O)CSCc2cc(=O)n3nc(C(C)C)sc3n2)s1
38. CCc1ccc(C(=O)COC(=O)c2ccccc2OC)cc1
39. CCOc1ccc2sc(NS(=O)(=O)c3ccc(N)cc3)nc2c1
40. O=S(=O)(Cc1ccc(Cl)cc1)N1CCN(Cc2ccccc2)CC1
assay / compound | 31 | 32 | 33 | 34 | 35 | 36 | 37 | 38 | 39 | 40
RanGTP-Imp inh | -3.7 | 0.2 | 0.6 | -1.3 | 1.2 | -0.5 | -1.1 | 4.7 | -0.1 | x
MLL AF4-AF9 inh | -0.5 | x | -1.4 | x | x | x | -4.5 | -3.6 | -8.4 | -3.8
Ecoli rRNA inh OD600 | -17 | x | 14 | -12 | x | x | 8 | x | -5.6* | 1
Calb FLC | -1 | x | 0 | -3 | 3 | -19 | -2 | -14 | 5 | 125*
T cruzi repl | -18 | -5 | 6 | -56 | 42 | -25 | 10 | -14 | 6 | 6
Beta apoptosis | 4 | 16 | -2 | -12 | 4 | 0 | -2 | x | -3 | 3
ALR H2O2 inh | 14 | -19 | 7 | 5 | -1 | -1 | 10 | -17 | -3 | 1
FGF22 binding | i | x | i | x | x | x | i | i | i | i
Ecoli rRNA inh | -3 | x | 13 | -2 | x | x | 3 | x | -24* | 10
Ecoli rRNA inh RFP | -1.6 | x | -2.0 | -0.7 | x | x | -3.0 | x | -5.0* | -6.3

# Shown bar-delimited: 2 of the compounds above.
No. | SMILES | RanGTP-Imp inh | MLL AF4-AF9 inh | Ecoli rRNA inh OD600 | Calb FLC | T cruzi repl | Beta apoptosis | ALR H2O2 inh | FGF22 binding | Ecoli rRNA inh | Ecoli rRNA inh RFP
6 | Cn1ccsc1=NC(=O)c1ccc(S(C)(=O)=O)c([N+](=O)[O-])c1 | 1.0 | -1.9 | x | -10 | -8 | -25 | 21 | i | x | x
7 | O=C(N/N=C/c1ccc(Br)cc1)c1cc[n+]([O-])cc1 | u | 1.7 | -5 | -18 | -7 | 0 | 0 | i | 1 | 0.3

# Some entries already given, limited to Ecoli rRNA inh, MLL AF4-AF9 inh and Beta apoptosis:
entry | molecule | Ecoli rRNA inh | MLL AF4-AF9 inh | Beta apoptosis
33 | CN(C)S(=O)(=O)Nc1ccccc1F | 13 | -1.4 | -2
34 | COc1ccc(CCNC(=O)c2ccc3c(=O)n(Cc4ccco4)c(=S)[nH]c3c2)cc1OC | -2 | x | -12
35 | COc1ccc(N2CCN(c3oc(COc4ccc(Cl)cc4)nc3C#N)CC2)cc1 | x | x | 4
36 | Cc1ccc(C(=O)NC(O)C(Cl)Cl)cc1 (stereo not given) | x | x | 0
37 | CCc1nnc(NC(=O)CSCc2cc(=O)n3nc(C(C)C)sc3n2)s1 | 3 | -4.5 | -2
38 | CCc1ccc(C(=O)COC(=O)c2ccccc2OC)cc1 | x | -3.6 | x
39 | CCOc1ccc2sc(NS(=O)(=O)c3ccc(N)cc3)nc2c1 | -24* | -8.4 | -3

# Further records.
41. CC(OC(=O)c1cccc(S(=O)(=O)N2CCCC2)c1)C(=O)NC1CCCCC1C (stereo not given)
42. CCc1ccc(-n2c(C)n[nH]c2=S)cc1
43. O=C(NCc1ccco1)C1CCCN(S(=O)(=O)c2cnc[nH]2)C1 (stereo not given)
44. N#CNC(=Nc1cccc(F)c1)SCc1ccccc1F
45. Cc1ccccc1Nc1nc(N)nc(COC(=O)CCS(=O)(=O)c2ccccc2)n1
46. CCCC(=O)OCCNc1cc(SCc2ccco2)c2nonc2c1[N+](=O)[O-]
47. COc1ccc(-c2ccc3c(=O)cc(-c4ccsc4)oc3c2)cn1
48. CCOC(=O)Cc1csc(NC(=O)CSc2nnnn2-c2ccc(C)c(C)c2)n1
49. CC12CN3CCN(CC(C3)/C1=N\N=C1/C3CN4CCN(C3)CC1(C)C4)C2
50. Cc1ccc(/C=N/NC(=O)c2ccc3c(c2)OCCO3)s1
assay / compound | 41 | 42 | 43 | 44 | 45 | 46 | 47 | 48 | 49 | 50
RanGTP-Imp inh | 2.3 | -1.7 | 4.1 | 1.9 | -1.9 | -1.3 | x | -3.1 | -3.5 | 1.0
MLL AF4-AF9 inh | 0.0 | -0.1 | -1.2 | -1.6 | x | x | 1.6 | x | -4.7 | -13
Ecoli rRNA inh OD600 | 10 | 3 | 2 | 12 | x | x | 17 | x | 15 | -19
Calb FLC | x | 33 | -2 | 17 | -9 | -32 | x | -11 | -8 | 0
T cruzi repl | 9 | -5 | -10 | -10 | -19 | 3 | x | 2 | -21 | -13
Beta apoptosis | 2 | 7 | x | 6 | -2 | -7 | -1 | 0 | -5 | 8
ALR H2O2 inh | 0 | x | -6 | -2 | -8 | -5 | 3 | -3 | -6 | -10
FGF22 binding | i | i | i | i | x | x | i | x | i | i
Ecoli rRNA inh | 7 | -1 | 12 | 21 | x | x | 9 | x | 9 | 1
Ecoli rRNA inh RFP | 2.0 | -1.2 | -2.7 | 15 | x | x | 18 | x | -2.2 | -1.5

# Source: PubChem
